Vaccinia Venus – vaccinia inhibition (Venus reporter); Potency, µM (highest dose often 36.5 µM), inactives show at the top dose activity change, negative = inhibition, hits mostly inhibitors; hit rate 0.46% among 330,000; Vaccinia virus Venus reporter expression, fluorescence; active means well fitted inhibition curve with a large enough effect; inconclusive means small, poorly fitted or top-dose-only effect; inactive means no such curve, though single readings can be large or run the other way; tested in A549 cells; note: nearly all actives have a fitted effect of over 30% in size; inactives centre near -10
Vaccinia mCherry – inhibitors of vaccinia virus infection (mCherry reporter signal). Vaccinia virus mCherry reporter infection, fluorescence; about a quarter of the inactives have no number. Potency, µM (top dose mostly 36.5 µM), inactives show top-dose activity change, negative = inhibition, actives largely listed as inhibitors. hit rate 0.63% among 310,000; active = well fitted inhibition curve with a large enough effect; inconclusive = small, poorly fitted or top-dose-only effect; inactive = no such curve, though single readings can be large or run the other way; tested in A549 cells; note: nearly all actives have a fitted effect of over 35% in size; inactives centre near -10
Numbers without * were called inactive; & = joins results of further samples; [ ] = dose if it differs, or a comment. % is set by controls: 0 for no effect and ±100 for the full control effect; potency is the fitted concentration of half-maximal effect.

How did O=C(NCC(=O)N1CCCC1)c1ccc(Br)o1 do in these assays?
Vaccinia Venus: -1%; Vaccinia mCherry: -12%

Results for Cc1cc(C)nc(SCc2cnc(C)nc2N)n1 ?
Vaccinia Venus: 2%; Vaccinia mCherry: 9%

How did O=C(CSc1nnnn1-c1ccccc1)c1cc2ccccc2oc1=O do in these assays?
Vaccinia Venus: 0%

Results for Cc1ccc(CCNC(=O)Cn2ncc3c(=O)oc4ccccc4c32)cc1 ?
Vaccinia Venus: -6%; Vaccinia mCherry: -12%

What do the screens show for `O=c1[nH]c2ccccc2c(=O)n1CCCO`?
Vaccinia Venus: -13%; Vaccinia mCherry: -12%

How did COC(=O)NCC(c1ccco1)N1CCN(c2ccccc2)CC1 (stereo not given) do in these assays?
Vaccinia Venus: 4%; Vaccinia mCherry: -8%

What do the screens show for `C[C@H]1CCCCO[C@H](CN(C)S(=O)(=O)c2cn(C)cn2)[C@@H](C)CN([C@@H](C)CO)C(=O)c2cc(NS(=O)(=O)c3ccccc3)ccc2O1`?
Vaccinia Venus: -13%; Vaccinia mCherry: -2%

Results for O=C(c1ccco1)N1CCN(C(=O)c2[nH]ncc2[N+](=O)[O-])CC1 ?
Vaccinia Venus: -12%; Vaccinia mCherry: -13%

How did O=C(NCCc1ccccc1)Nc1cccc(Cl)c1 do in these assays?
Vaccinia Venus: -9%; Vaccinia mCherry: -4%

Results for COCCCNC(=O)C(=O)NCC1CCCN1S(=O)(=O)c1cccs1 (stereo not given) ?
Vaccinia Venus: -5%; Vaccinia mCherry: -21%

How did O=C(CN1C(=O)N/C(=C\c2ccccc2OCc2ccc(C(=O)O)cc2)C1=O)Nc1ccccc1F do in these assays?
Vaccinia Venus: -7%; Vaccinia mCherry: -22%

Results for Nc1ccc2nn(-c3ccccc3)nc2c1 ?
Vaccinia Venus: -5%; Vaccinia mCherry: inconclusive

What do the screens show for `Cc1ccc([N+](=O)[O-])cc1-c1ccc2cccc(C)c2n1`?
Vaccinia Venus: -7%; Vaccinia mCherry: -5%

How did COc1ccc(Cl)cc1NC(=O)C(C)N1CCc2ccccc21 (stereo not given) do in these assays?
Vaccinia Venus: -13%; Vaccinia mCherry: -22%

What do the screens show for `O=S(=O)(NCCc1nnc2ccc(SCc3ccc(C(F)(F)F)cc3)nn12)c1ccccc1`?
Vaccinia Venus: -13%; Vaccinia mCherry: -19%

How did CC1CN(S(=O)(=O)c2cccc(C(=O)NNC(=O)C(C)Oc3ccccc3F)c2)CC(C)O1 (stereo not given) do in these assays?
Vaccinia Venus: -4%; Vaccinia mCherry: -24%

Results for Cc1ccc(C(=O)CC2(O)C(=O)N(C)c3ccc(Br)cc32)c(C)c1 (stereo not given) ?
Vaccinia Venus: 3%; Vaccinia mCherry: inactive

Results for Cc1ccc(C)c(NC(=O)Cn2nnc(C(=O)NCc3ccco3)c2N)c1 ?
Vaccinia Venus: -22%; Vaccinia mCherry: inconclusive

Results for O=C(Nc1cccc(C(=O)N2CCN(c3ccc(Cl)cc3)CC2)c1)c1nsc2ccccc12 ?
Vaccinia Venus: -30%; Vaccinia mCherry: -29%

What do the screens show for `Oc1ccc(CNC2CCCCC2)cc1`?
Vaccinia Venus: -4%

6 entries out of the list, ordered by number of heavy atoms, smallest number first:
How did O=C(NCC(=O)N1CCCC1)c1ccc(Br)o1 do in these assays?
Vaccinia Venus: -1%; Vaccinia mCherry: -12%

Results for Cc1cc(C)nc(SCc2cnc(C)nc2N)n1 ?
Vaccinia Venus: 2%; Vaccinia mCherry: 9%

Results for O=C(c1ccco1)N1CCN(C(=O)c2[nH]ncc2[N+](=O)[O-])CC1 ?
Vaccinia Venus: -12%; Vaccinia mCherry: -13%

Results for COCCCNC(=O)C(=O)NCC1CCCN1S(=O)(=O)c1cccs1 (stereo not given) ?
Vaccinia Venus: -5%; Vaccinia mCherry: -21%

Results for Cc1ccc(CCNC(=O)Cn2ncc3c(=O)oc4ccccc4c32)cc1 ?
Vaccinia Venus: -6%; Vaccinia mCherry: -12%

How did O=C(CN1C(=O)N/C(=C\c2ccccc2OCc2ccc(C(=O)O)cc2)C1=O)Nc1ccccc1F do in these assays?
Vaccinia Venus: -7%; Vaccinia mCherry: -22%

(more compounds)
What do the screens show for `C/C(CC(=O)Nc1cccnc1)=N/NC(=O)COc1ccc(Cl)cc1Br`?
Vaccinia Venus: 11%; Vaccinia mCherry: -17%

How did Cc1c(Cc2ccccc2)[n+](=O)c2ccccc2n1[O-] do in these assays?
Vaccinia Venus: -14%; Vaccinia mCherry: 0%

Results for CCCCC(CCC(=O)Nc1ccccc1C(=O)OCC)C(=O)O (stereo not given) ?
Vaccinia Venus: 3%

Results for Cc1nc(C(F)(F)F)nc(Nc2ccc(N=Nc3ccccc3)cc2)c1C#N ?
Vaccinia Venus: -13%; Vaccinia mCherry: -1%

How did Cc1c(Cl)cccc1NC(=O)CCC(=O)N/N=C/c1ccco1 do in these assays?
Vaccinia Venus: -2%; Vaccinia mCherry: -15%

How did Cc1ccc(S(=O)(=O)N2CCCCC2)cc1C(=O)NC1CC(C)(C)NC(C)(C)C1 do in these assays?
Vaccinia Venus: -11%; Vaccinia mCherry: -4%

What do the screens show for `Cc1[nH]c(C)c(S(=O)(=O)NCc2ccccc2Cl)c1C(=O)N1CCCC1`?
Vaccinia Venus: 0%[7.34 µM]; Vaccinia mCherry: inactive[7.34 µM]

How did O=C1C=CC[C@H](/C=C/C[C@@H](O)C[C@H](O)CCc2ccccc2)O1 do in these assays?
Vaccinia Venus: inconclusive; Vaccinia mCherry: inconclusive

What do the screens show for `CN(c1ccccc1C(=O)NC1CCCCC1)S(=O)(=O)c1ccccc1`?
Vaccinia Venus: -16%; Vaccinia mCherry: inactive

What do the screens show for `Cc1ccc(NC(=O)c2oc3ccccc3c2NC(=O)C23CC4CC(CC(C4)C2)C3)cc1`?
Vaccinia Venus: -16%; Vaccinia mCherry: -14%

Results for O=C(Nc1ccncc1)c1cc(-c2ccccn2)nc2ccc(Br)cc12 ?
Vaccinia Venus: -7%; Vaccinia mCherry: inactive

What do the screens show for `CCCCN(CC)C(=O)/C=C/c1cccc([N+](=O)[O-])c1`?
Vaccinia Venus: 46%[activator]; Vaccinia mCherry: 37%[activator]

What do the screens show for `COc1ccc(NC(=O)C2CCCN(S(=O)(=O)c3ccc4c(c3)oc(=O)n4C)C2)c(OC)c1` (stereo not given)?
Vaccinia Venus: -12%&-13%; Vaccinia mCherry: -12%&-1%

How did Cc1cc2c(cc1S(=O)(=O)N(C)CC(=O)Nc1ccc(C#N)cc1)OCC(=O)N2 do in these assays?
Vaccinia Venus: 2%; Vaccinia mCherry: 0%

What do the screens show for `CCCCC(CC)CNC(=O)Cc1ccc(-n2c(=O)[nH]c3ccccc3c2=O)cc1` (stereo not given)?
Vaccinia Venus: -22%; Vaccinia mCherry: -22%

What do the screens show for `O=C(CSc1nc(-c2ccccc2)c(-c2ccccc2)o1)N1CCOCC1`?
Vaccinia Venus: -27%

How did Nc1nc(C23CC4CC(CC(C4)C2)C3)cs1 do in these assays?
Vaccinia Venus: -14%; Vaccinia mCherry: -21%

What do the screens show for `Cc1ccc(S(=O)(=O)N(CC(=O)N2CCCC2)C2CCCCC2)cc1`?
Vaccinia Venus: -13%; Vaccinia mCherry: -17%

How did CCc1cccc(C)c1NC(=O)C1CCN(c2nn3c(=O)cc(C)nc3s2)CC1 do in these assays?
Vaccinia Venus: -2%[7.34 µM]; Vaccinia mCherry: -2%[7.34 µM]

How did Cc1cc(C)c(C(O)c2ncc(-c3ccccc3Cl)[nH]2)c(C)c1 (stereo not given) do in these assays?
Vaccinia Venus: -10%; Vaccinia mCherry: inactive

Results for S=c1[nH]c(-c2ccccc2)cn1/N=C/c1ccccc1Br ?
Vaccinia Venus: -28%; Vaccinia mCherry: -18%

How did COC(=O)CC(C(=O)Nc1cc(C(=O)OC)cc(C(=O)OC)c1)N1CCN(C)CC1 (stereo not given) do in these assays?
Vaccinia Venus: -13%; Vaccinia mCherry: -16%

How did Cc1ccc(CN(C(=O)c2csnn2)C(C(=O)NC2CCCC2)c2ccc(C)o2)cc1 (stereo not given) do in these assays?
Vaccinia Venus: 4%; Vaccinia mCherry: -8%

What do the screens show for `COC(=O)C(Cc1cnc(Cl)s1)(C(=O)OC)c1ccc([N+](=O)[O-])cc1`?
Vaccinia Venus: -12%; Vaccinia mCherry: -6%

How did CCC(C)NC(=O)CN(C1CCCCC1)S(C)(=O)=O (stereo not given) do in these assays?
Vaccinia Venus: -2%; Vaccinia mCherry: inactive

Results for Cc1ccc2nc(-c3ccc(O)cc3)c(Nc3ccc4c(c3)OCCO4)n2c1 ?
Vaccinia Venus: -1%&-8%; Vaccinia mCherry: -6%&-4%

Results for CCN(CC(=O)Nc1c(F)cccc1F)C(=O)Cc1ccc(S(=O)(=O)N2CCOCC2)s1 ?
Vaccinia Venus: -4%; Vaccinia mCherry: -7%

Results for CCCn1c(=O)c2sccc2n2c(CCCC(=O)NC3CCCCC3)nnc12 ?
Vaccinia Venus: 1%; Vaccinia mCherry: -2%

Results for CC(C)[C@H](NC(=O)OCc1ccccc1)C(=O)N[C@@H](Cc1c[nH]c2ccccc12)C(=O)O ?
Vaccinia Venus: -6%; Vaccinia mCherry: -4%

Results for Cc1ccc(Cl)cc1N1CCN(C(=O)c2nn(C)c3c2CS(=O)(=O)c2ccccc2-3)CC1 ?
Vaccinia Venus: -16%; Vaccinia mCherry: -9%

Results for Cc1cc2ccccn2c1C(=O)c1nc(NCc2ccccc2)ncc1Cl ?
Vaccinia Venus: -9%; Vaccinia mCherry: -14%

Results for COc1ccc(NC(=O)NNS(=O)(=O)c2cc(C)ccc2C)cc1OC ?
Vaccinia Venus: -7%; Vaccinia mCherry: -9%

Results for CCCS(=O)(=O)NC(=O)C1(C)CCCN(C(=O)c2ccccc2)C1 (stereo not given) ?
Vaccinia Venus: 3%; Vaccinia mCherry: 7%

How did CCOc1ccccc1NC(=O)CSc1nnnn1C1CCCC1 do in these assays?
Vaccinia Venus: -24%; Vaccinia mCherry: 0%

What do the screens show for `COc1ccc(-c2noc(CC(=O)Nc3cc(OC)ccc3OC)n2)cc1`?
Vaccinia Venus: -13%; Vaccinia mCherry: -15%

How did O=C(Cn1cc(COc2cc(F)cc(F)c2)nn1)c1ccc(O)cc1 do in these assays?
Vaccinia Venus: -10%; Vaccinia mCherry: inactive

How did CC[C@H](NC(=O)/C=C/[C@H]1O[C@@H](n2cc(C)c(=O)[nH]c2=O)C[C@@H]1O)c1ccccc1 do in these assays?
Vaccinia Venus: -5%; Vaccinia mCherry: 3%

What do the screens show for `CCNC(=O)C1(C)CCN(C(=O)c2ccc(F)c(Cl)c2)C1` (stereo not given)?
Vaccinia Venus: -5%; Vaccinia mCherry: 28%

How did O=C(Cc1cccc2ccccc12)Nc1cc(Cl)ccc1C(=O)O do in these assays?
Vaccinia Venus: -8%; Vaccinia mCherry: inactive

Results for COc1ccc(-c2c(=O)n(OCc3nc4ccccc4[nH]3)c3ccccc3[n+]2[O-])cc1 ?
Vaccinia Venus: 10%; Vaccinia mCherry: -4%

Results for CC(C)C(NC(=O)c1ccccc1F)C(=O)NCCCn1ccnc1 (stereo not given) ?
Vaccinia Venus: -10%; Vaccinia mCherry: inactive

Results for CCC(c1nnnn1C(C)(C)C)N(Cc1cccs1)Cc1cc2cc(C)c(C)cc2n2nnnc12 (stereo not given) ?
Vaccinia Venus: -14%; Vaccinia mCherry: -13%

How did COc1ccc(/C=C(/CC(=O)Nc2ccccc2)c2nc3ccccc3s2)cc1 do in these assays?
Vaccinia Venus: -11%; Vaccinia mCherry: inactive

How did CCN(CC)CCCN=Cc1c(O)n(CCc2ccc(F)cc2)c(=O)[nH]c1=O do in these assays?
Vaccinia Venus: -15%

What do the screens show for `Cc1ccc(CN2CCC(C(=O)NCCC(C)C)CC2)o1`?
Vaccinia Venus: -9%; Vaccinia mCherry: -28%

What do the screens show for `COC(=O)CNC(=O)c1cccc(Cl)c1`?
Vaccinia Venus: -3%; Vaccinia mCherry: -16%

Results for O=C(c1ccccc1)C1CCN(C(=O)C2CCC(=O)N(Cc3ccccc3F)C2)CC1 (stereo not given) ?
Vaccinia Venus: -16%; Vaccinia mCherry: -19%

What do the screens show for `CC1CN(S(=O)(=O)N2CCOCC2)CCN1S(=O)(=O)N1CCOCC1` (stereo not given)?
Vaccinia Venus: -5%; Vaccinia mCherry: -24%

What do the screens show for `O=C(CSc1nc2nc(-c3cccs3)cc(C(F)(F)F)c2c(=O)[nH]1)Nc1c(F)c(F)c(F)c(F)c1F`?
Vaccinia Venus: -4%; Vaccinia mCherry: inactive

What do the screens show for `CCC1(C2CCN(C(=O)c3ccccc3C(C)=O)CC2)NC(=O)N(CCc2scnc2C)C1=O` (stereo not given)?
Vaccinia Venus: -16%; Vaccinia mCherry: -15%

Results for Cn1c(=O)c(=O)n(C)c2cc(S(=O)(=O)NCCN3CCN(c4ccccc4F)CC3)ccc21 ?
Vaccinia Venus: 2%; Vaccinia mCherry: inactive

What do the screens show for `CC(OC(=O)c1cccc(O)c1)C(=O)N(C)Cc1ccccc1` (stereo not given)?
Vaccinia Venus: -19%; Vaccinia mCherry: -20%

Results for COc1ccc(CN2C(=O)CN(S(C)(=O)=O)CC2(C)C(=O)Nc2c(C)cccc2C)cc1OC (stereo not given) ?
Vaccinia Venus: -4%; Vaccinia mCherry: 11%

What do the screens show for `O=C(CC1C(=O)NCCN1Cc1ccc(F)cc1Cl)NC1CCCCCCC1` (stereo not given)?
Vaccinia Venus: -16%; Vaccinia mCherry: -1%

What do the screens show for `Cc1[nH]n(-c2ccc(F)cc2)c(=O)c1/C=N/c1sc2c(c1C#N)CCCC2`?
Vaccinia Venus: -14%; Vaccinia mCherry: inactive
